AmpC inh no det: Promiscuous and Specific Inhibitors of AmpC Beta-Lactamase (assay without detergent); AmpC nitrocefin hydrolysis, absorbance 480 nm, no detergent; potencies from a single point are estimates; Potency, µM (doses to about 28.7 µM), inactives show at the top dose activity change, negative = inhibition; actives 1.8% (n = 71,000); active = falling curve, for most hits resting on a single point; inconclusive = weak or doubtful change; inactive = flat or rising curve; also: % of control where 0% means no effect; a quarter of the inactives give rising signals
Target sequence (P00811 whole entry, looked up): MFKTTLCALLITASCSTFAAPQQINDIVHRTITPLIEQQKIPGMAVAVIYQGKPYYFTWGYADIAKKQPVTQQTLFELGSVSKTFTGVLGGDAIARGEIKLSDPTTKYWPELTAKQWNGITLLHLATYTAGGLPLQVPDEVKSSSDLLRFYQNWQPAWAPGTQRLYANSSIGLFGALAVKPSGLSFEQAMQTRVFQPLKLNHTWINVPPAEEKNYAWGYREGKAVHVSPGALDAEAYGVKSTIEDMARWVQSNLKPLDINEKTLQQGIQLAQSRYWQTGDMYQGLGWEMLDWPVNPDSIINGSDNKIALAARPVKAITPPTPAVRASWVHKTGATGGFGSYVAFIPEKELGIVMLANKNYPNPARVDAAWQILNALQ
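Enzyme, pH 7.0 phosphate. Compound titrations were pre-incubated with AmpC for 15 min at room temperature before nitrocefin (stock 800 uM) addition; product formation was recorded at 480 nm every 20 s for 4 min.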
* marks the source's active call; other numbers are inactive results; ? = inconclusive; [ ] = another dose, or the depositor's remark. Potency is read from the fitted curve at half-maximal effect. Only part of the results is shown, so the mix of outcomes need not match the whole.

Structure	AmpC inh no det
COc1ccc(CCNC(=O)c2cc(-c3cc(C)c(C)cc3O)n[nH]2)cc1OC	20%
CS(=O)(=O)c1nc(-c2cccs2)cc(C(F)(F)F)n1	-3%
Cc1cccc(-n2c(O)c(C=NCCCN3CCOCC3)c3ccccc3c2=O)c1	59%
COc1ccc2cc3c(N)c(C(=O)N4CCCC4)sc3nc2c1	77%
CCc1nc(C)cn1S(=O)(=O)c1ccc(Cl)c(Cl)c1Cl	33%
O=C(c1cnn2c(C(F)(F)F)cc(-c3ccccc3)nc12)N1CCOCC1	23%
Cc1ccccc1NC(=O)C1CCCN1S(=O)(=O)c1cccc2cccnc12 (stereo not drawn)	40%
COCc1nnc(NS(=O)(=O)c2ccc(NC(C)=O)cc2)s1	-2%
CCn1c(N)c(C(=O)Nc2ccccc2C(=O)OC)sc1=S	19%
C=CCN1C(=O)C(CC(=O)O)SC1=Nc1c(C)n(C)n(-c2ccccc2)c1=O (stereo not drawn)	6%
CCn1c(SCC(=O)Nc2ccccc2N2CCOCC2)nnc1-c1ccccc1	-15%
O=c1oc2ccccc2n1CCCCCn1c(=O)oc2ccccc21	24%
O=C(CSc1ccc2nnc(-c3ccc(F)cc3)n2n1)N1CCOCC1	3%
Cc1c2cccc(Sc3ccccc3)c2c2c3c(cccc13)[S+](c1ccccc1)C2 (stereo not drawn)	-27%[5.75 µM]
Cc1noc(C)c1CSc1nc2ccccc2c(=O)n1-c1ccccc1	26%
COc1cccc(C2NC(=O)NC(C)=C2C(=O)Nc2cc(OC)ccc2OC)c1 (stereo not drawn)	23%
CCN(CC)C(=O)Oc1ccc2c(=O)c(-c3ccc(OC)cc3)c(C)oc2c1	106%
CCOC(=O)c1cc(S(=O)(=O)N2CCN(C(=O)OCC)CC2)cn1C	26%
COC(=O)[C@@H]1C[C@H]1[C@@H](NC(=O)OCc1ccccc1)c1ccccc1	21%
O=C(Nc1nnc(-c2ccco2)s1)C1CC1	?
Fc1ccc(COc2ccc(/C=N/n3cnnc3)cc2)cc1	43%
Cc1ccc(NC(=O)c2nc[nH]c2C(=O)N2CCCCC2)c(C(=O)c2ccccc2)c1	84%
COc1ccc(C2C(C(=O)N3CCOCC3)=C(C)NC3=C2C(=O)CC(C)(C)C3)c(OC)c1 (stereo not drawn)	7%
COc1ccccc1-c1cc(C(=O)N2CCN(c3ccccc3OC)CC2)no1	111%
Cc1cn2c(-c3ccc(Cl)cc3)nnc2s1	10%
CC1(C)CC(=O)c2sc(N3CCCCC3)nc2C1	10%
CC(C)(C)n1ncc2c(=O)n(CC(=O)NCc3ccccc3Cl)cnc21	11%
CCCCOc1cc(=O)[nH]c(=O)[nH]1	-7%
O=C(NCc1ccco1)c1ccc(Cl)c(S(=O)(=O)N2CCOCC2)c1	-4%
CC(C)(C)c1ccc(O)c(CN2CCN(c3ccccc3)CC2)c1	-4%
CCOC(=O)N1CCN(C(=O)CCS(=O)(=O)c2ccc(Br)s2)CC1	8%
CC(C)Oc1ccc(C2C(C(=O)c3ccco3)=C(O)C(=O)N2Cc2cccnc2)cc1 (stereo not drawn)	-2%
Cn1c(SCC(=O)N2CCc3ccccc32)nc2cccnc21	65%
CSc1ccccc1NC(=O)c1ccccc1N(C)S(C)(=O)=O	18%
COCc1nnc(NC(=O)CS(=O)(=O)Cc2ccccc2)s1	-14%
Cc1nc2ccc(C(=O)c3ccccc3)cc2[nH]1	-12%
CCOC(=O)c1[nH]c2ccc(C)cc2c1NC(=O)CN1CCCCC1	12%
CC1CCN(C(=O)c2cc(-c3ccccc3O)on2)CC1	1%
COc1ccc(CNc2ncncc2-c2ccccc2OC)c(OC)c1	47%
Cc1cc(C)n2c(=S)[nH]nc2n1	-11%
CCOc1cc(NS(=O)(=O)CC)c(OCC)cc1NC(=O)c1ccco1	46%
OC(COc1ccc2ccccc2c1)Cn1ccnc1 (stereo not drawn)	28%
CC(=O)OC1C(OC(C)=O)N(C(C)=O)C(=O)N1C(C)=O (stereo not drawn)	4%
O=C(Nc1ccc(Cl)cc1C(=O)Nc1ccncc1)c1ccco1	-3%
CCCCC(NC(C)=O)c1nc2ccccc2n1CCCC (stereo not drawn)	86%
CC(=O)COc1ccc2c3c(c(=O)oc2c1C)CCCCC3	36%
COc1cc(-c2n[nH]c(=O)o2)cc(OC)c1OC	-10%
COc1ncc2ncc(=O)n(CCc3ccccc3)c2n1	15%
CCN1CCCC1CNC(=O)CSc1cc(=O)n(CC)c2ccccc12 (stereo not drawn)	9%
Cn1nc(-c2ccc(Cl)cc2)c2cc(C(=O)N3CCN(c4ccccn4)CC3)sc21	4µM*[single pt active]
CCOC(=O)c1oc2cc(O)ccc2c(=O)c1-c1ccccc1OC	-7%
Cc1nc(SCn2nnc3ccccc3c2=O)c2c(C)c(C)sc2n1	14%
O=C(c1ccccc1)[C@@H]1O[C@H]1c1ccc(-c2ccccc2)cc1	14%
CC1(C)c2ccccc2N2CC(=O)NC21/C=C/c1ccco1 (stereo not drawn)	10%
CN(C)CCCO[C@H]1[C@H]([C@H](O)CO)O[C@H]2OC(C)(C)O[C@@H]21	-4%
CCOc1ccc2nc(COC(=O)c3ccco3)c(C(C)=O)[n+]([O-])c2c1	-9%

New compounds follow:
Structure	AmpC inh no det
O=[N+]([O-])c1cccc(CCl)c1	-5%
C[C@H](NC(=O)[C@@H]1C[C@H]1[C@@H](NC(=O)OCc1ccccc1)c1ccccc1)c1ccccc1	?
O=C(CSc1nnc(-c2ccccc2Br)o1)N1CCN(C(=O)c2ccco2)CC1	73%
COc1ccc2[nH]c(C)c(CN3CCC(C)CC3)c(=O)c2c1	-3%
CCc1nnc(NC(=O)CSc2nc3c(c(=O)n2CC)SC(C)C3)s1 (stereo not drawn)	1%
CC(=O)CN1Cc2ccccc2/C1=N\C(=O)Nc1ccccc1	6%
Cc1onc(-c2ccccc2Cl)c1C(=O)Nc1ccc(S(=O)(=O)N2CCCC2)cc1	-4%
CCCn1c(SCC(=O)Nc2c(C)cccc2CC)nnc1C(C)C	21%

An excerpt from above in order of molar mass, low to high:
Structure	AmpC inh no det
O=c1oc2ccccc2n1CCCCCn1c(=O)oc2ccccc21	24%
CCOC(=O)c1[nH]c2ccc(C)cc2c1NC(=O)CN1CCCCC1	12%
CSc1ccccc1NC(=O)c1ccccc1N(C)S(C)(=O)=O	18%

More results:
Structure	AmpC inh no det
C=C(C)[C@H]1CC[C@]2(CO)CC[C@]3(C)[C@@H](CC[C@H]4[C@@]5(C)CC[C@@H](O)C(C)(C)[C@@H]5CC[C@@]43C)[C@H]12	-10%[12.8 µM]
Cn1c(SCC2CCCO2)nnc1-c1ccncc1 (stereo not drawn)	-2%
COc1ccc(-c2nnc(SCC(=O)NC(C)c3ccccc3)o2)cc1OC (stereo not drawn)	63%
O=C(c1ccccc1C(=O)N1CCN(c2ccccc2)CC1)N1CCN(c2ccccc2)CC1	126%
Cc1ccc(S(=O)(=O)c2cc3c(=O)n4ccccc4nc3n(Cc3ccco3)c2=N)cc1C	60%
CN(C)C[C@H]1CCC[C@@H](CN(C)C)C1=O	-4%[5.75 µM]
CC(=O)c1cccc(NS(=O)(=O)c2ccc3c(c2)oc(=O)n3C)c1	-6%
COCCn1c(=O)c(-c2ccc(F)c(F)c2)nc2cncnc21	32%
O=C1CCCc2c1cc(C(=O)Nc1ccc(Br)cn1)c(=O)n2-c1ccccc1	57%
COc1cc(NCCCC(C)N)c2ncccc2c1 (stereo not drawn)	-3%
O=C(O)COc1c(F)c(F)c(C(F)(F)F)c(F)c1F	0%
CCCCOC(=O)Nc1ccccc1C(=O)N1CCCC1	0%
COC(=O)C1C(=O)c2c([nH]c(C(=O)OC3CCCCC3)c2C)CC1C (stereo not drawn)	4%
COc1ccc(CCNS(=O)(=O)c2ccc(F)cc2)cc1OC	2%
COc1ccc(NC(=O)C2CCCN(S(=O)(=O)c3cccnc3)C2)cc1 (stereo not drawn)	-6%
CC1CC(C)CN(Cc2nc(N)nc(Nc3ccc4ccccc4c3)n2)C1 (stereo not drawn)	29%
CCOC(=O)CCCn1nc(C)n2c(cc3sccc32)c1=O	18%
O=C(O)C1CCCN1S(=O)(=O)c1ccc(Br)s1 (stereo not drawn) (tested in a mixture with another compound)	-5%
CC(C)(C)C(=O)Nc1ccccc1C(=O)NCc1ccco1	1%
CC(=O)N1CCN(c2ccc(NC(=O)c3ccccc3Br)cc2Cl)CC1	41%
CC(CN1CCCCC1)OC(=O)c1cc2ccccc2o1 (stereo not drawn)	-1%
CN(C)C(=O)CCc1nc(-c2ccc(C(C)(C)C)cc2)no1	-1%
CCOc1ccc(-c2nc(-c3ccc(OC)cc3)no2)cc1OCC	77%
CCCCC[C@H](CC(=O)NO)C(=O)N[C@@H](C(=O)N1CCC[C@H]1CO)C(C)C	-1%
COc1ccc2nc(NC(=O)CCc3nc(-c4ccccc4F)no3)sc2c1	-8%
Cc1ccc(S(=O)(=O)Nc2ccc(-c3nnc(SCC#N)n3C)cc2)cc1	12%
COc1ccc2cc(C(=O)Nc3c(C)n(C)n(-c4ccccc4)c3=O)sc(=O)c2c1OC	2.5µM*[single pt active]
COc1cccc2[nH]c3c(N4CCCCC4)ncnc3c12	2%
Cc1csc(SCC(=O)Nc2nc(-c3ccccc3)cs2)n1	64%
O=C(Cn1ccc2ccccc2c1=O)NCCC(=O)Nc1ccc2c(c1)OCCO2	-10%
CC(=O)Nc1cccc(NC(=O)CSc2nnnn2C)c1	-2%
O=C(Cc1ccccc1)NC1CCN(S(=O)(=O)c2cccc(F)c2)CC1	12%
Cc1nonc1OCCNC(=O)C12CC3CC(CC(C3)C1)C2	9%
O=C(Nc1ccccc1)Nc1cccc2cccnc12	?
CCCc1cc(=O)[nH]c(SCC(=O)N(C)CC(=O)Nc2ccc(C)cc2)n1	20%
COc1cccc(C2C(C#N)=C(N)Oc3cc(C)n(Cc4ccco4)c(=O)c32)c1 (stereo not drawn)	-1%
Cn1c(SCC(=O)Nc2ccc3cn[nH]c3c2)nnc1-c1cccs1	-10%
COc1ccc(N2CCN(CCNC(=O)c3cccn4c(=O)c5ccc(Cl)cc5nc34)CC2)cc1	58%
Cc1cc(C)nc(NC2=NCC(=O)N2c2ccccc2Br)n1	9%
COCCNC(=O)c1ccc2c(c1)NC(=O)CS2	-5%
Cc1oc(-c2ccccc2F)nc1CS(=O)(=O)CC(=O)NC1CCCC1	48%
CCOC(=O)c1ccc(-c2ccc(C(=O)Nc3cccnc3)o2)cc1	36%
Brc1ccc(-c2noc(CCc3ccccc3)n2)o1	4µM*[single pt active]
COc1ccc(NC(=O)CN(C2CCCCC2)S(C)(=O)=O)cc1OC	8%
COCCOC(=O)c1c(C)n(C)c2ccc(OC(=O)C3CC3)cc12	98%
CCCn1c(N)c(Sc2ccc(Cl)cc2)c(=O)n(CCC)c1=O	-6%
CC(C)[C@]1(O)[C@@H](OC(=O)c2ccc[nH]2)[C@]2(O)[C@@]3(C)C[C@@]4(O)O[C@@]5([C@H](O)[C@@H](C)CC[C@]35O)[C@]2(O)[C@]41C	5%[5.75 µM]
CCOc1ccc(NC(=O)CN2CCN(CC(=O)c3ccc(OCC)cc3)CC2)cc1	137%
CCn1c(CSc2nc(C)cc(C)n2)nnc1SCC(=O)Nc1nc(-c2ccccc2)cs1	69%
Cn1c(=O)c2[nH]c([C@@H]3CC(=O)C[C@H](c4nc5c([nH]4)c(=O)n(C)c(=O)n5C)N3)nc2n(C)c1=O	-7%[5.75 µM]
CCCCn1c(SCC(=O)NCc2ccco2)nc2ccc(N3CCOCC3)cc2c1=O	43%
CCCc1c(OCCCOc2ccc(OCC(=O)O)cc2)ccc(C(C)=O)c1O	24%
Cn1c(=O)c(-c2ccc(F)c(F)c2)nc2cncnc21	4%
CN(C)c1ncc2nc(-c3cc(F)cc(F)c3)c(=O)n(C[C@H]3CCCO3)c2n1	12%
COc1ccc(OC)c2[nH]c(=O)c(CCNC(C)=O)cc12	-5%
Cc1cc(=O)[nH]c(-n2nc(C)c(Oc3ccccc3O)c2C)n1	3%

Other entries follow.
Structure	AmpC inh no det
CCc1nnc(NC(=O)c2c(O)c3cccc4c3n(c2=O)CC4)s1	5%
O=C(O)c1cccc2c1C(=O)N(Cc1ccncc1)C2	-6%
COc1ccccc1-c1cc(C(=O)N2CCc3ccccc3C2)no1	17%
O=C(Nc1ccc(Cl)cc1C(=O)N1CCOCC1)c1ccco1	-9%
COc1ccccc1N1CCN(C(=O)CSc2nc3ncnc(N)c3[nH]2)CC1	4%
Cn1c(=O)cc(SCC(=O)NCc2ccco2)c2ccccc21	6%

Some of the entries so far, field by field:
CCCCC[C@H](CC(=O)NO)C(=O)N[C@@H](C(=O)N1CCC[C@H]1CO)C(C)C
  AmpC inh no det: -1%
COc1ccc2nc(NC(=O)CCc3nc(-c4ccccc4F)no3)sc2c1
  AmpC inh no det: -8%
Cc1ccc(S(=O)(=O)Nc2ccc(-c3nnc(SCC#N)n3C)cc2)cc1
  AmpC inh no det: 12%
COc1ccc2cc(C(=O)Nc3c(C)n(C)n(-c4ccccc4)c3=O)sc(=O)c2c1OC
  AmpC inh no det: 2.5µM*[single pt active]

Bioassay records: PubChem BioAssay, National Center for Advancing Translational Sciences (NCATS)
